# D2 PAM = Beta-Arrestin HTS for Positive Allosteric Modulators of the Human D2 Dopamine Receptor: Potentiators; D(2) dopamine receptor (Homo sapiens), P14416; DiscoveRx D2 beta-arrestin cells, luminescence, 90 min; 100% = 57 uM dopamine signal; potentiation, % (no concentration beside the values); actives 0.23% (n = 360,000); active = potentiation of 50% or more; inconclusive = 30% to 50%; inactive = 30% or less;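 note: compound concentration not given in the record; tested on top of an EC20 dose of dopamine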
# Target sequence (P14416 whole entry, looked up): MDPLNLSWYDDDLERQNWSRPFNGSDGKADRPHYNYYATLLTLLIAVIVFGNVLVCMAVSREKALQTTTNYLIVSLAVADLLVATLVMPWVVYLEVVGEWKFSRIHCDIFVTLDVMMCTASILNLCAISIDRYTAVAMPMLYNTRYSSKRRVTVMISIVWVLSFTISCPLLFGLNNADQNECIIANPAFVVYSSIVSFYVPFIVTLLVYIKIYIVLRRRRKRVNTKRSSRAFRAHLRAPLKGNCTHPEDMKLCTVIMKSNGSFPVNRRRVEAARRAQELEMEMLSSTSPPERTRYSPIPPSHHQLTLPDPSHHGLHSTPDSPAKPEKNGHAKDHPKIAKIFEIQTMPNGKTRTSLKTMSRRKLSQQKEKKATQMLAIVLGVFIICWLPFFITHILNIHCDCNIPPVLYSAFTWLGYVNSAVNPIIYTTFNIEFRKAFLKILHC
#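 PathHunter D2 cells, attached overnight at 37 deg C, received compound in DMSO plus dopamine at EC20 (50 nM final) for 90 min at 37 deg C. Beta-arrestin recruitment was read as luminescence after 1 h with detection reagent at ambient temperature.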
# D2 agonist = Beta-Arrestin HTS for Positive Allosteric Modulators of the Human D2 Dopamine Receptor: Agonists. activation, % (test concentration not listed). D(2) dopamine receptor (Homo sapiens), P14416. actives 0.084% (n = 360,000). DiscoveRx PathHunter D2 beta-arrestin, luminescence, 90 min; 100% = 57 uM dopamine signal; in the data active = activation above about 40%; inconclusive = about 15% to 40%; inactive = below about 15%; note: compound concentration not given in the record; the text of the record calls up to 30% inactive
#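 Agonist mode: compounds alone added to overnight-plated D2 PathHunter cells for 90 min at 37 C, with 57 uM final dopamine (EC100) defining full response. Beta-arrestin recruitment detected by chemiluminescent reagent, read after 1 h at ambient temperature.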
# TRPV1 PAM = HTS Assay for Compounds that Act as Potentiators of the Vanilloid Receptor 1; TRPV1-expressing cells, Fluo-8 calcium influx, capsaicin EC20 potentiation; host cell line not named in the record; control for the full effect not named in the record; potentiation, % at 8.33 µM; actives 0.02% (n = 320,000); active means potentiation above 80%; inconclusive means 30% to 80%; inactive means below 30%; note: 0% is about no effect
#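 Fluo-8 calcium influx in TRPV1-expressing cells, kinetic read (ex 480/em 520 nm). Compound added and read 3 min for agonist activity, followed by capsaicin at EC20 final and 2 min further read for enhancement.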
# Sfp inh = qHTS Assay for Inhibitors of Bacillus subtilis Sfp phosphopantetheinyl transferase (PPTase); 4'-phosphopantetheinyl transferase ffp (Bacillus subtilis), Q9F4F7; Biochemical Sfp PPTase activity, qHTS; actives 3.5% (n = 310,000); Potency, µM, without a hit: max response, negative = inhibition, most hits filed as inhibitors; active = well fitted inhibition curve with a large enough effect; inconclusive = small, poorly fitted or top-dose-only effect, or another doubt; inactive = no such curve, though single readings can be large or run the other way;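 note: the enzyme is Sfp with the accession as filed and its product quenches rhodamine fluorescence; potency is the fitted concentration of half-maximal effect; 0% = enzyme reaction without inhibitor and -100% = no enzyme wells; top concentration of the series not given in the record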
#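 Fluorescence-quenching assay with 15 nM Sfp, 5 uM rhodamine-CoA and 12.5 uM BHQ-2-labelled ybbR peptide in pH 7.6 Hepes/MgCl2 buffer. Enzyme was pre-incubated with compound for 15 min at room temperature. Rate was taken from the 30-min fluorescence change (525/598 nm).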
# PINK1 modulator = A Quantitative High throughput Screen to Identify Chemical Modulators of PINK1 Expression | Potency, µM (highest dose often 76.6 µM), inactives show top-dose activation (PINK1 increase), usual class: activators | AID 624263, 2012 | actives 0.2% (n = 410,000) | PINK1 immunofluorescence, high-content cytometry, 24 h; active = well fitted activation curve with a large enough effect; inconclusive = small, poorly fitted or top-dose-only effect; inactive = flat fitted curve, though single readings scatter; cell line not stated here;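 note: potency is the fitted concentration of half-maximal effect; % of control where 0% means no effect; nearly all actives have a fitted effect of over 65% in size; a mitochondrial uncoupler was the plate control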
#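 Stable cell line treated 24 h with compounds at 5 concentrations (CCCP controls), then fixed and immunostained for PINK1 plus nuclear and cell stains; PINK1 immunofluorescence quantified by laser-scanning microplate cytometry.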
# CtBP-E1A blk = qHTS Assay for Inhibitors of the CtBP/E1A Interaction. AlphaScreen GST-E1A/His-CtBP binding, 1536-well; active compounds read low; control for the full effect not named in the record. CtBP / adenovirus E1A interaction (AlphaScreen). activity change, % (concentration not given with the values). actives 0.49% (n = 340,000); in the data active means activity change below about -65%; inconclusive means about -30% to -65%; inactive means above about -30%; note: % is set by controls: 0 for no effect and ±100 for the full control effect
#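 Homogeneous bead-based format: GST-tagged E1A captured on glutathione donor beads, His-tagged CtBP on nickel acceptor beads; compounds precede bead addition by 2 h at 37 °C.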
# Six1-Eya2 inh = qHTS Assay for Inhibitors of the Six1/Eya2 Interaction. activity change, % (concentration not given with the values). AlphaScreen GST-Six1/His-Eya2 binding, biochemical; active compounds read low; control for the full effect not named in the record. actives 0.56% (n = 360,000). AID 651725, 2012; in the data active = activity change below about -65%; inconclusive = about -30% to -65%; inactive = above about -30%; note: % is set by controls: 0 for no effect and ±100 for the full control effect
#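 Compounds are tested against tagged Six1 and Eya2 proteins bridged by glutathione donor and nickel acceptor beads; after a one-hour incubation at 37 °C without light, AlphaScreen emission is recorded.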
# The depositor's hits bear a star; ? = inconclusive; / = no result given; & = joins results of further samples; [ ] = remark or other dose.
SMILES,D2 PAM,D2 agonist,TRPV1 PAM,Sfp inh,PINK1 modulator,CtBP-E1A blk,Six1-Eya2 inh
O=C(O)CSc1nnc(COc2ccccc2)n1-c1ccccc1,-1,5.2,0,31%[activator],-0.2%,/,0
Nc1nc(N)nc(-c2ccc(Oc3ccccc3)cc2)n1,2,3.0,2,15%,0.9%[38.3 µM],-1,-3
CCCCn1c(NCCN(C)C)nc2c1c(=O)[nH]c(=O)n2C,-23,-1.0,-5,-7%,0.4%,2,3
Cc1onc(-c2ccccc2)c1C(O)c1ccc(F)cc1 (stereo not given),-10,-2.8,-7,13%,5.8%,/,4
CN(C)c1ccc(S(=O)(=O)N2CCCCC2)cc1NC(=O)CCNC(=O)c1ccccc1Cl,3,-2.3,/,/,-0.8%,/,2
COc1ccccc1CCC(=O)OCC(=O)NC1CCCC1,-68,-0.5,9,/,0.2%,4,7
Cc1nn(C)c(C)c1CCC(=O)O,2,-5.1,10,8%,0.0%,6,9
COc1ccccc1C(=O)NC(=O)COC(=O)CCOc1cc(C)ccc1C,-7,-5.6,2,-7%,-2.5%,0,-3
CC1CCC2(CC1)NC(=O)N(CC(=O)N1CCN(C(=O)c3ccco3)CC1)C2=O (stereo not given),-2,-1.8,4,/,-0.4%,2,6
O=C(NCCc1cnc[nH]1)c1cccs1,-23,-3.1,-1,3%,-0.5%,/,4
COc1ccc(-c2cc(C(=O)Nc3cc(C)on3)no2)cc1OC,0,-7.9,6,9%,1.2%,/,1
C/C(Cn1nnc([N+](=O)[O-])n1)=N\NC(=O)c1ccc(O)cc1,5,?,1,5%,0.8%,/,6

# Part of the list above in another layout.
# Each structure is followed by: D2 PAM | D2 agonist | TRPV1 PAM | Sfp inh | PINK1 modulator | CtBP-E1A blk | Six1-Eya2 inh
Nc1nc(N)nc(-c2ccc(Oc3ccccc3)cc2)n1
    2 | 3.0 | 2 | 15% | 0.9%[38.3 µM] | -1 | -3
CCCCn1c(NCCN(C)C)nc2c1c(=O)[nH]c(=O)n2C
    -23 | -1.0 | -5 | -7% | 0.4% | 2 | 3
Cc1onc(-c2ccccc2)c1C(O)c1ccc(F)cc1 (stereo not given)
    -10 | -2.8 | -7 | 13% | 5.8% | / | 4
CN(C)c1ccc(S(=O)(=O)N2CCCCC2)cc1NC(=O)CCNC(=O)c1ccccc1Cl
    3 | -2.3 | / | / | -0.8% | / | 2
COc1ccccc1CCC(=O)OCC(=O)NC1CCCC1
    -68 | -0.5 | 9 | / | 0.2% | 4 | 7

# Later entries
SMILES,D2 PAM,D2 agonist,TRPV1 PAM,Sfp inh,PINK1 modulator,CtBP-E1A blk,Six1-Eya2 inh
O=C(NC1=NCCCCC1)c1cccc2ccccc12,4,-8.2,3,13%,0.5%,6,2
CCc1n[nH]c(=S)n1/N=C/c1cc(Br)c(O)c(OC)c1,-16,-0.1,8,79µM*,0.0%,/,-9
Cc1ccc(-c2nn3c(C)nnc3c3ccccc23)cc1S(=O)(=O)NCCO,-22,-7.1,-2,19%,5.4%&3.8%,27,0
C/C(=N\NC(=O)c1c(Cl)c(C)nn1C)c1cccc(NC(=O)c2cccc(F)c2)c1,-22,-3.8,5,5%,3.5%,-18,7
CCS(=O)(=O)NCCc1cc2cc(C)c(C)cc2[nH]c1=O,-2,-2.2,-2,21%,-0.6%,-13,-4
COc1ccc(-c2csc(NC(=S)NC(=O)/C=C/c3ccco3)n2)cc1OC,-14,-2.0,8,-13%,?,-7,-29
COCCNC(=O)Nc1ccc2nc(-c3cccs3)c(-c3cccs3)nc2c1,6,-1.2,2,?,5.1%,12,11
Cc1cc2cc(CN(Cc3ccco3)C(=O)NCc3ccccc3)c(=O)[nH]c2cc1C,-17,1.2,12,-13%,0.0%,-3,0
CC1=C([N+](=O)[O-])C(c2ccccc2Cl)NC(=O)N1C (stereo not given),0,9.4,13,10%,-0.5%,2,1
O=c1[nH]c(C2CCN(S(=O)(=O)c3ccc(C(F)(F)F)cc3)CC2)nc2c1nnn2Cc1cccc(F)c1,-13,-2.1,1,3%,2.9%,-14,0
CCCC(O)(c1ccc(OC)cc1)C(CN1CCOCC1)c1ccc(Cl)cc1 (stereo not given),-1,-5.0,-10,-2%,12%,/,-12
Cc1ccc(/C(N)=N/OC(=O)Cc2cccs2)cc1,-4,-3.2,-3,2%,0.6%,22,24
COc1ccc(/C=C/c2ccccc2)cc1[C@H]1[C@@H]2C=CCC[C@@]2(C)C(=O)N1Cc1ccccc1,-12,-2.8,12,-24%,2.2%,?,-15
O=C(COc1ccc(S(=O)(=O)NC2CCCCC2)cc1Cl)N1CCN(c2ccccc2)CC1,-10,0.2,1,8%,-5.0%[38.3 µM],-14,-9
CC(C)CNC(=O)C1(C)CCCN1C(=O)c1ccc2c(c1)CCO2 (stereo not given),-14,4.3,/,/,-1.0%,-23,6
COCCCn1c(=O)c2sccc2n2c(CCCC(=O)NCc3ccccc3OC)nnc12,2,-4.2,9,9%,3.6%,-10,0
CC1CCC2(CC1)NC(=O)N(CC(=O)Nc1ccc(N3CCCCC3)cc1)C2=O (stereo not given),-7,0.3,/,/,1.3%,2,-11
O=c1oc2ccccc2c2oc3cc(O)c(O)cc3c12,3,-0.2,4,?,-1.8%,-12,-30
CC(C)C[C@@H]1NC(=O)[C@H](CO)NC(=O)c2cc([N+](=O)[O-])cc(I)c2OCC[C@@H](C(N)=O)NC1=O,-7,-4.8,-6,33%,-0.2%,2,-4
Cc1ccc(S(=O)(=O)Nc2ccc3ccccc3c2[N+](=O)[O-])cc1,-3,3.5,/,/,2.2%,?,-30
CCOc1ccccc1N1CCN(C(=O)NC2CCCCC2)CC1,-9,-3.2,-13,8%,-0.6%,-10,-3
O=C(CCCC1=NS(=O)(=O)c2ccccc2N1)N1CCN(c2ccccc2)CC1,-5,-1.9,12,7%,-1.3%,5,-5
O=C(Cn1cnc2ccccc2c1=O)NCC(=O)N1CCN(c2ccccn2)CC1,-17,-2.7,3,20%,-0.5%,-1,7
Cc1ccc(NC2CCCN(C(=O)C3CCCC3)C2)cc1C (stereo not given),-4,-6.4,-22,-9%,-0.8%,-13,-12
OCC[C@H]1C[C@@H](O)[C@H](O)[C@]2(Cc3ccccc3CO2)O1,-33,-2.5,-13,/,0.4%,2,2
COc1ccc(CNC(=O)c2cc(=O)c3cc(C)cc(C)c3o2)cc1,-5,1.8,7,12%,0.6%,-7,0
COc1ccc(/C=C/C(=O)OC(C)CN2CCOCC2)cc1 (stereo not given),-8,-1.0,-6,0%,-3.0%,-2,2
O=C(CN(C(=O)C1CSC(=O)C1)c1ccccc1F)NCc1ccc2c(c1)OCO2 (stereo not given),-6,-1.2,-7,13%,3.6%[38.3 µM],7,-2
CCCCN(CC)S(=O)(=O)c1ccc2c(c1)CCCN2C(C)=O,2,-2.3,-7,2%,-0.9%,5,6
COc1ccsc1C(=O)NCCN1CCOCC1,9,-3.3,1,12%,1.0%,10,3
C#CCOCCOCCOCCNc1nc(N2CCOCC2)nc(N2CCN(C(=O)CCCCCCCCCCNC(=O)[C@H](CO)n3cc(CCCCCN)nn3)CC2)n1,-9,-2.2,?,/,2.9%,-9,-7
CC(C)[C@H](Nc1ccc(S(=O)(=O)N2CCOCC2)cc1[N+](=O)[O-])C(=O)OCC(N)=O,-1,0.8,1,14%,0.1%,0,5
CCOC(=O)c1c(C)[nH]c(C)c1C(=O)COC(=O)c1ccc(S(=O)(=O)C(F)F)cc1,8,-0.2,?,/,-0.5%,/,-8
CC(=O)c1ccc(N2CCN(C(=O)CCCn3c(=O)[nH]c4ccc(Br)cc4c3=O)CC2)cc1,-2,4.4,2,3%,2.2%,5,-8
N#C/C(=C(/O)CN1CCN(c2ccccc2F)CC1)c1nc(-c2ccccc2)cs1,-13,-2.3,10,20%,1.4%[38.3 µM],-19,-14
CC(C)c1ccc2[nH]c3c(c2c1)CCCC3=O,-1,1.4,6,11%,-0.8%,2,-4
O=C1C2(CCCC13COC(c1ccc(O)cc1)OC3)COC(c1ccc(O)cc1)OC2 (stereo not given),-7,-1.2,-2,1%,-1.2%,0,-1
O=C(Nc1ccc(NC(=O)c2ccccn2)cc1)C(=O)Nc1ccc2c(c1)OCCO2,-1,-1.4,-1,13%,4.1%,2,1
COc1cc(C(=O)N2CCNCC2)cc(OC)c1OC,-11,-9.1,5,2%,1.0%,12,0
Cc1cccc(N2C(=O)CC(N3CCN(c4ccc(Cl)cc4)CC3)C2=O)c1 (stereo not given),-6,-4.8,1,5%,0.6%,2,-3
O=C(Nc1ccc2c(c1)OCCO2)c1cccc(C(=O)Nc2ccc3c(c2)OCCO3)c1,-1,-1.5,-8,10%,5.4%,?,?
CCc1ccc(NC(=O)COC(=O)C2(c3ccc(Cl)cc3)CCCC2)cc1,-25,2.7,-2,20%,23%,26,46
Cc1cccc(C)c1N/C=C/c1onc(C)c1[N+](=O)[O-],-3,-0.1,-10,-4%,40µM*,-11,5
Cc1ccccc1-n1c(Cn2c(=O)sc3ccccc32)nnc1SCC(=O)N1CCOCC1,0,-2.0,4,18%,?,7,6
Cc1cccc(NC(=O)c2ccc(OCc3c(C)noc3C)cc2)c1C,1,8.4,/,/,1.6%,-4,15
CC(C)(C)C(=O)N1CCN(c2ccc(NC(=O)c3ccco3)cc2)CC1,-1,0.3,2,6%,-1.2%,-6,-5
CCCCn1c(N)c(N(CCOC)C(=O)CSc2n[nH]c(-c3ccc(C)cc3)n2)c(=O)[nH]c1=O,-11,-1.8,14,/,4.1%,0,3
Cc1ccc2nc(-c3ccc4c(c3)OCCO4)cn2c1,-6,2.2,-10,13%,4.3%,-7,-2
Cc1ccc(S(=O)(=O)NCC(=O)NCC2CCCCC2)cc1C,-8,-2.1,-22,13%,2.4%,-4,2
COc1cccc(NC(=O)COC(=O)c2ccc(C)c(S(=O)(=O)N3CCCCC3)c2)c1,2,1.9,-1,/,-0.8%,-6,-12
CC12CC3CC(C)(C1)CC(C(=O)N1CCN(C(=O)c4ccco4)CC1)(C3)C2,-1,-3.6,-12,-1%,1.3%,-4,-8

# Screening results deposited in PubChem BioAssay by National Center for Advancing Translational Sciences (NCATS).

# Compounds were not picked by outcome; overall some 3.7% were active at least once.
